# Tg IFNy HTS – T. gondii growth inhibition under IFN-gamma | Toxoplasma gondii growth in IFN-gamma-treated host cells; active compounds read low; reference of the scale not given here | activity change, negative = inhibition, %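 (about 20 µM by stock and volumes)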 | hit rate 3.8% among 69,000 | AID 1259416;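 active means below -70%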;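 further: host cells are HeLa cells infected with Toxoplasma gondii; parasite growth read as luciferase light; one replicate is shown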
# Starred values were filed as active, the others as inactive; & = joins results of further samples. Only part of the results is shown (hit frequency here may not be typical).
SMILES,Tg IFNy HTS
Cc1nc(OCC(=O)Nc2cccc(Cl)c2)c2ccccc2n1,0
O=S(=O)(c1cccc(F)c1)N1CCC2(CC1)Nc1ccc(Cl)cc1-n1cccc12,-2
Cc1ccsc1[C@@H]1CCN(Cc2ccncc2F)C[C@H]1O,0
O=C(c1cn(-c2ccccc2)nc1-c1ccc(Cl)cc1)N1CC[C@H](O)[C@@H](O)C1,-19
NC(=O)C1CCN(C(=O)CN2CCN(c3ccnc4cc(Cl)ccc34)CC2)CC1,-1
O=C(C[C@@H]1C=C[C@@H](NS(=O)(=O)c2ccc(F)cc2)[C@@H](CO)O1)N1CCc2ccccc2C1,26
COc1ccc2cnc(C3CCN(CC(=O)c4cnc(C)cn4)CC3)cc2c1C,80
Cc1ccc2c(=O)c(C(=O)O)c[nH]c2n1,-8
COC(=O)CC(=O)CCn1ncc2ccccc21,19
O=C1CO[C@H]2CN(S(=O)(=O)c3ccccc3F)C[C@@H]2N1,12
CN1C(=O)c2cc(NC(=O)c3cscn3)ccc2OC[C@@H]2O[C@H](CC(=O)N3CCOCC3)CC[C@@H]21,-1
CC(C)c1cc(C(C)C)c(CC(=O)NS(=O)(=O)Oc2c(C(C)C)cccc2C(C)C)c(C(C)C)c1,5
COCC(=O)N1[C@H](C#N)[C@@H](c2ccc(C#Cc3ccccc3F)cc2)[C@H]1CO,22
C[C@]12CCC3c4ccc(OC(=O)c5ccccc5)cc4CCC3C1CCC2=O (stereo partly drawn),18
CNC(=O)C[C@H]1CC[C@H]2[C@@H](COc3ccc(NC(=O)Nc4ccc(C#N)cc4)cc3C(=O)N2C)O1,-31
Cc1nc(C)c(C(=O)NCc2cc(=O)n3[nH]c(-c4ccccn4)cc3n2)s1,-11
COc1cc(C(=O)NCCc2csc(-c3cccc(F)c3)n2)cc(OC)c1OC,15
COc1cc(OC)cc(C(=O)N2CCC3(CC2)Nc2cccnc2NC3=NC2CCCCC2)c1,-53
CCCSc1ncc(-c2nccn2Cc2cnn(CC)c2)cn1,4
Cc1cccc2[nH]c(CCN(C)C(=O)c3ccoc3)nc12,9
COc1ccc2c3c([nH]c2c1)[C@@H](CO)N(Cc1nccs1)CC31CCN(Cc2cccnc2)CC1,18
Nc1cccn(Cc2cccc(C(F)(F)F)c2)c1=O,200
Cc1ccsc1[C@@H]1CCN(Cc2cn[nH]c2C(=O)O)C[C@H]1O,-48
COC(=O)c1cc2c(=O)n3cc(C)ccc3nc2n(CCCn2ccnc2)c1=N,34
COCC(=O)N1[C@H](CO)[C@H]2c3ccccc3N(C(=O)Nc3ccccc3Cl)C[C@H]21,-46
CN1[C@H](CO)[C@@H]2c3ccccc3N(C(=O)C3CCCCC3)C[C@@H]21,-35
Cc1ccc(CNC(=O)c2ccc3c(c2)C(c2ncn[nH]2)CN3C(=O)c2ccccc2)o1 (stereo not drawn),22
CC(=O)N1CCC(N(C)Cc2nc(CC(C)C)no2)CC1,13
Cc1ccc(-c2nnc(-c3nc(NCCCc4ccccc4)c4ccccc4n3)o2)cc1,311
O=C(c1ccccc1C1CCNC1)N1CCOC2(CCCC2)C1 (stereo not drawn),3
CCOc1cccc(C2c3[nH]c4ccccc4c3CCN2C(=O)c2ccc(OC)cc2)c1 (stereo not drawn),-93*
CC(C)(O)C#Cc1ccc([C@@H]2[C@@H](CO)N3CCCCN(S(C)(=O)=O)C[C@H]23)cc1,32
CCO[C@H]1CC[C@@H]2[C@@H]1OCCN2C(=O)c1oc2ccccc2c1C,-11
O=C(C1CC1)N1CC[C@@H]2[C@H](CO)Nc3ccc(Br)cc3[C@@H]21,40
O=C1CN(CC2(O)CCCN(CCc3ccccc3)C2=O)CCN1c1ccccc1 (stereo not drawn),0
COc1cc(OC)c(CN2CC[C@@H](N)[C@@H](OC)C2)c(C(=O)O)c1,-1
Clc1ccccc1CSc1nc(NCc2ccccc2)c2ccccc2n1,-49
COc1ccc(-c2nc(NC3CCCCC3)c3ccccc3n2)cc1,-61
CNC(=O)Cn1nc(C(=O)N2CCOC(c3ccc(Cl)cc3)C2)cc1C (stereo not drawn),-3
CN1CCOCC2(CCCN(Cc3ccn(C)n3)C2)C1 (stereo not drawn),82
CN(C/C=C/c1ccccc1)C(=O)CC1C(=O)NCCN1Cc1ccoc1 (stereo not drawn),3
CN(C)[C@@H]1CCN(C(=O)CC2CC2)[C@H]1Cc1ccncc1,-36
Cc1ccc(-c2nnc(-c3nc(NCc4ccc(F)cc4)c4ccccc4n3)o2)cc1,15
COc1ccc(-n2ncc3c(NC4CCCCCCCCCCC4)ncnc32)cc1,-39
O=c1nc2n(c3c1oc1ccccc13)Cc1ccccc1-2,-18

# Copied from the list.
# For Tg IFNy HTS, COc1ccc2c3c([nH]c2c1)[C@@H](CO)N(Cc1nccs1)CC31CCN(Cc2cccnc2)CC1 is entered as 18
# For Tg IFNy HTS, Cc1nc(C)c(C(=O)NCc2cc(=O)n3[nH]c(-c4ccccn4)cc3n2)s1 is entered as -11
# For Tg IFNy HTS, NC(=O)C1CCN(C(=O)CN2CCN(c3ccnc4cc(Cl)ccc34)CC2)CC1 is entered as -1
# For Tg IFNy HTS, Nc1cccn(Cc2cccc(C(F)(F)F)c2)c1=O is entered as 200
# For Tg IFNy HTS, CCCSc1ncc(-c2nccn2Cc2cnn(CC)c2)cn1 is entered as 4

# Further results.
SMILES,Tg IFNy HTS
CC1CCCCN1C1CN(Cc2ccc(C(=O)Nc3cnn(C)c3)cc2)C1 (stereo not drawn),-1
CC(C)c1ccc(NC(=O)CSc2nccc(-c3csc(-c4ccccc4)n3)n2)cc1,-22
COc1ccc(C2(C(=O)NC3C=CS(=O)(=O)C3)CCCC2)cc1 (stereo not drawn),11
Cc1ncc(Cc2ccccc2)c(C2CCN(C(=O)/C=C/c3cccs3)CC2)n1,2
O[C@@H]1CN(Cc2cc3n(n2)CCCNC3)CC[C@H]1c1ccc2c(c1)OCO2,-36
Cc1ccc2cc(C)c(-c3ccncc3)nc2c1,1
O=C(NCCc1csc(-c2ccccc2)n1)[C@H]1CSCN1C(=O)CCC1CCCC1,-36
C=CCc1c(C)nc2ccc(Br)cc2c1Oc1ccccc1,-23
CC1CCN(S(=O)(=O)c2ccc3c(ccc(=O)n3CC(=O)NCCc3ccccc3)c2)CC1,-68
COc1ccc(OC)c(NC(=O)C2=C(C)C(=O)OC23CCN(C(C)C)CC3)c1,34
CN(Cc1ccncc1)Cc1cc(-c2ccccc2)no1,-3
CN/C(=C\[N+](=O)[O-])NCCSCc1csc(CN(C)C)n1,15&12
COCCO[C@@H]1CCN(S(=O)(=O)c2cccs2)[C@H]1Cc1ccccc1,3
CN(C)S(=O)(=O)N1CCc2nc(N)c(C(=O)Nc3ccc(F)cc3)cc2C1,15
O=S(=O)(NCc1ccccc1)Nc1ccc(-n2cncn2)cc1,1
O=C(c1ccc([N+](=O)[O-])cc1)N1CCSC1c1ccccc1Cl (stereo not drawn),22
Cc1ccsc1CN(Cc1ccncc1)C1CCCC1,9
Cc1ccc(OCC(=O)NCCc2sc(-c3cccc(F)c3)nc2C)cc1,1
Cc1nn(CC(=O)NC2CCCCCC2)c(=O)c2nc(-c3ccccc3)sc12,23
Cc1c(NC(=O)C(C)N2CCC(C)CC2)cccc1C(=O)NC(C)(C)C (stereo not drawn),-1
CN1CCN(Cc2c(Cl)ccc(O)c2Cl)CC1C(=O)O (stereo not drawn),2
CCOC(=O)N1CCN(c2cc3cc(OC)ccc3oc2=O)CC1,12
CC(C(=O)N1CCC(C(=O)c2nc3ccccc3s2)CC1)c1ccccc1 (stereo not drawn),40
COc1ccc2c(c1)c(CC(=O)OCC(=O)O)c(C)n2C(=O)c1ccc(Cl)cc1,12
C(=C/c1ccc2ccccc2n1)/c1ccc2c(c1)OCO2,-94*
C[C@@H]1CN([C@H](C)CO)C(=O)c2cc(-c3ccc(C#N)cc3)cnc2O[C@H]1CN(C)Cc1cccnc1,178
CN(C)CCNC(=O)C1Cc2nc(-c3ccccc3)sc2N1CC1CC1 (stereo not drawn),10
Cc1ccc(S(=O)(=O)NCC[C@H]2CC[C@H](NC(=O)c3cccnc3)[C@H](CO)O2)cc1,-27
O=C(CCC(=O)N1CCN[C@H]2CS(=O)(=O)C[C@H]21)NC1CCCC1,-3
CCc1ccc(NC(=O)COc2nc(CC)nc3ccccc23)cc1,-1
O=C(c1ccc(F)cc1F)N1CCC(c2nc3ccc(-c4cccnc4)cn3n2)CC1,-3
O=C1CO[C@H]2CN(S(=O)(=O)c3ccc(F)cc3)C[C@@H]2N1,-3
Cc1occc1C(=O)N1C[C@H]2OC(=O)N(CCCc3ccc(F)cc3)[C@H]2C1,-3
COc1cc(C(=O)NC2(Cc3ccc(C)cc3)CC2)ccc1O,-5
COc1ccc2c(c1)C=C(CN(C)Cc1cc(-c3ccncc3)no1)CO2,-3
CO[C@H]1CN(C)C(=O)c2cc(NC(=O)Nc3cc(F)ccc3F)ccc2OC[C@H](C)NC[C@H]1C,-41
C[C@@H](O)C#Cc1ccc([C@H]2[C@H]3CN(C(=O)c4ccc5c(c4)OCO5)CCCCN3[C@H]2CO)cc1,-39
CN(Cc1n[nH]c2c1CCC2)C(=O)c1cnn2ccn(C)c12,-4
COc1ccc(Cl)cc1NC(=O)N1CCC(c2nc(C(=O)N(C)C)c(C)o2)CC1,13
Fc1ccc(CN2CCCC(OCc3cccnc3)C2)c(F)c1F (stereo not drawn),3
Cc1ccc(NC(=O)C(=O)N(C)C(C)Cc2ccccn2)c(C)c1 (stereo not drawn),8
CCN1C(=O)CCc2cc(NS(=O)(=O)c3cc(F)ccc3F)ccc21,53
CS(=O)(=O)N1C[C@H]2CC[C@@]3(N=C(c4ccccc4)NC3=O)[C@H]2C1,-15
COCC1c2nnn(C)c2CCN1S(=O)(=O)c1cn(C)cn1 (stereo not drawn),6
CCn1nc(C(C)C)cc1C(=O)N1C[C@H](O)C[C@H]1C(=O)OC,0

# 5 entries from above, ordered by number of heavy atoms, lowest first.
SMILES,Tg IFNy HTS
COCC1c2nnn(C)c2CCN1S(=O)(=O)c1cn(C)cn1 (stereo not drawn),6
Cc1ccc(NC(=O)C(=O)N(C)C(C)Cc2ccccn2)c(C)c1 (stereo not drawn),8
CCN1C(=O)CCc2cc(NS(=O)(=O)c3cc(F)ccc3F)ccc21,53
COc1ccc2c(c1)C=C(CN(C)Cc1cc(-c3ccncc3)no1)CO2,-3
COc1ccc(Cl)cc1NC(=O)N1CCC(c2nc(C(=O)N(C)C)c(C)o2)CC1,13

# By substructure, those above with a furan ring, fused or not (6)
SMILES,Tg IFNy HTS
Cc1cccc2[nH]c(CCN(C)C(=O)c3ccoc3)nc12,9
Cc1ccc(CNC(=O)c2ccc3c(c2)C(c2ncn[nH]2)CN3C(=O)c2ccccc2)o1 (stereo not drawn),22
CCO[C@H]1CC[C@@H]2[C@@H]1OCCN2C(=O)c1oc2ccccc2c1C,-11
CN(C/C=C/c1ccccc1)C(=O)CC1C(=O)NCCN1Cc1ccoc1 (stereo not drawn),3
O=c1nc2n(c3c1oc1ccccc13)Cc1ccccc1-2,-18
Cc1occc1C(=O)N1C[C@H]2OC(=O)N(CCCc3ccc(F)cc3)[C@H]2C1,-3

# Going on with the list:
SMILES,Tg IFNy HTS
C=CCOCC1c2nnn(C)c2CCN1Cc1ccoc1 (stereo not drawn),-5
COc1ccc(OCC(O)CNS(=O)(=O)c2cccs2)cc1 (stereo not drawn),-62
O=c1[nH]c(=S)[nH]nc1-c1ccc(Cl)cc1,-40
O=C(NCC(O)CO)c1c(I)c(C(=O)NCC(O)CO)c(I)c(N(CCO)C(=O)CO)c1I (stereo not drawn),12
Cc1cc(C)cc(C(=O)N2CCC3(CC2)NC(=O)c2cc(C)ccc2N3C)c1,54
O=C(O)C1CN(Cc2ccc(Cl)cc2)C1,28
CN(C)C1CCN(C(=O)c2cc(-c3cnc(-c4ccccc4)nc3)cn2C)CC1,-2
c1ccc2c(c1)CC(N1CCCN(Cc3cc4n(n3)CCCNC4)CC1)C2,-9
CC1=C(C(=O)NCCN2CCOCC2)C2(CCN(Cc3ccccc3)CC2)OC1=O,45
Cc1nc(-c2ccccc2F)sc1C(=O)NCc1nc(Cc2ccccc2)no1,-6
Cc1ccc(O)c(N=Nc2ccccc2)n1,9
O=C(Nc1csc(-c2ccc(Cl)cc2)c1)c1cccnc1Oc1ccc(Cl)cc1,70
O=C(C1CCC1)N1CCN(C2CCCC2)CC(Cc2ccccn2)C1 (stereo not drawn),34
Cn1c(NCc2ccc(F)cc2)cc(=O)n(C)c1=O,24
CCN(Cc1cncn1C)c1cccc(OCCOc2ccccc2OC)c1,355

# A stretch from the list above, as a working copy:
SMILES,Tg IFNy HTS
Cc1cc(C)cc(C(=O)N2CCC3(CC2)NC(=O)c2cc(C)ccc2N3C)c1,54
O=C(O)C1CN(Cc2ccc(Cl)cc2)C1,28
CN(C)C1CCN(C(=O)c2cc(-c3cnc(-c4ccccc4)nc3)cn2C)CC1,-2

# Additional records
SMILES,Tg IFNy HTS
Cn1cccc1C(=O)N1CCCn2nnc(COCC3CC3)c2C1,11
COCCC(=O)N1C[C@H]2CN(c3ccsc3)C(=O)[C@@H]2C1,2
C=CCOCC1CCC2C1OCCN2C(=O)c1ccc2ncccc2c1 (stereo not drawn),143
CC(C)(C)c1ccc(NC(=O)Nc2sccc2-n2cccc2)cc1,-17
CC(C)(C)C(=O)CN1C(=O)c2ccccc2C1=O,-47
CCc1oc2ccccc2c1CN1CC2CCCC(C1)C2(O)c1ccccn1 (stereo not drawn),26
CC(=C(CCOP(=O)(O)O)SC(=O)c1ccccc1)N(C=O)Cc1cnc(C)nc1N,13
Cc1nnc(-c2ccccc2-c2cccc3ccnn23)s1,-41
Cc1ccc(C(=O)CSc2nnnn2-c2ccc3c(c2)OCCO3)cc1C,-11
CCOc1ncnc2c1CCN(C(=O)c1cscn1)CC2,-11
COc1cccc(C2CCCN2Cc2nc(CCC(C)C)no2)c1 (stereo not drawn),12
CCc1ccc(CN2CC[C@H]3CN(C4CCOCC4)CCO[C@@H]3C2)o1,-7
COc1ncccc1CN1CCc2[nH]cnc2C1Cc1ccccc1 (stereo not drawn),-52
O=C(c1n[nH]c2c1CCCCCC2)N1CCCN(c2ccccn2)CC1,10
CN1CCN(C(=O)Cn2cc(C(=O)Nc3ccc(F)cc3)ccc2=O)C(c2ccccc2)C1 (stereo not drawn),13
Cc1nc(C)c(S(=O)(=O)NC(CCN2CCOCC2)c2ccccc2)s1 (stereo not drawn),13
O=C(CCc1nc2ccccc2[nH]1)NCCc1ccc(C(F)(F)F)cc1,-5
